D2 potentiator: positive allosteric modulators of human D2 dopamine receptor; potentiation, % (no concentration beside the values); DiscoveRx D2 beta-arrestin cells, luminescence, 90 min; 100% = 57 uM dopamine signal; AID 624464; 360,000 compounds, 0.23% hits; P14416; active = potentiation of 50% or more; inconclusive = 30% to 50%; inactive = 30% or less;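 further: compound concentration not given in the record; tested on top of an EC20 dose of dopamine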
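PathHunter D2 cells, attached overnight at 37 deg C, received compound in DMSO plus dopamine at EC20 (50 nM final) for 90 min at 37 deg C. Beta-arrestin recruitment was read as luminescence after 1 h with detection reagent at ambient temperature.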
CtBP-E1A blk: blocks the CtBP interaction with E1A. AlphaScreen GST-E1A/His-CtBP binding, 1536-well; active compounds read low; control for the full effect not named in the record. activity change, % (no concentration beside the values). 340,000 compounds, 0.49% hits; in the data active means activity change below about -65%; inconclusive means about -30% to -65%; inactive means above about -30%; further: on the % scale 0 is the no-effect control and ±100 the full control effect
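In 5 uL wells, 23 nL compound meets equimolar GST-E1A and His-CtBP (5X stock 125 nM each) for 2 h, 37 °C. Beads (5X, 50 ug/mL) then 1 h, 37 °C, dark.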
PINK1 expr mod: changes PINK1 expression; PINK1 immunofluorescence, high-content cytometry, 24 h; Potency, µM (doses to about 76.6 µM), inactives show at the top dose activation (PINK1 increase), hits mostly activators; 410,000 compounds, 0.2% hits; active = well fitted activation curve with a large enough effect; inconclusive = small, poorly fitted or top-dose-only effect; inactive = flat fitted curve, though single readings scatter; cell line not stated here;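 further: potency means the concentration at half of the fitted maximal effect; % of control where 0% means no effect; nearly all actives have a fitted effect of over 65% in size; a mitochondrial uncoupler was the plate control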
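Stable cell line, 250 cells/well, 12 h attachment; compounds pinned at 5 concentrations, 24 h; CCCP control. Fixed with nuclear dye, primary antibodies 12 h at 10 degrees C, secondary plus cell stain; laser-scanning cytometer read.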
Six1-Eya2 inh: inhibitors of human Six1/Eya2 interaction; Q15475+O00167; AlphaScreen GST-Six1/His-Eya2 binding, biochemical; active compounds read low; control for the full effect not named in the record; activity change, % (concentration not given with the values); 360,000 compounds, 0.56% hits; AID 651725; in the data active = activity change below about -65%; inconclusive = about -30% to -65%; inactive = above about -30%; further: on the % scale 0 is the no-effect control and ±100 the full control effect
Target sequence (O00167 whole entry, looked up): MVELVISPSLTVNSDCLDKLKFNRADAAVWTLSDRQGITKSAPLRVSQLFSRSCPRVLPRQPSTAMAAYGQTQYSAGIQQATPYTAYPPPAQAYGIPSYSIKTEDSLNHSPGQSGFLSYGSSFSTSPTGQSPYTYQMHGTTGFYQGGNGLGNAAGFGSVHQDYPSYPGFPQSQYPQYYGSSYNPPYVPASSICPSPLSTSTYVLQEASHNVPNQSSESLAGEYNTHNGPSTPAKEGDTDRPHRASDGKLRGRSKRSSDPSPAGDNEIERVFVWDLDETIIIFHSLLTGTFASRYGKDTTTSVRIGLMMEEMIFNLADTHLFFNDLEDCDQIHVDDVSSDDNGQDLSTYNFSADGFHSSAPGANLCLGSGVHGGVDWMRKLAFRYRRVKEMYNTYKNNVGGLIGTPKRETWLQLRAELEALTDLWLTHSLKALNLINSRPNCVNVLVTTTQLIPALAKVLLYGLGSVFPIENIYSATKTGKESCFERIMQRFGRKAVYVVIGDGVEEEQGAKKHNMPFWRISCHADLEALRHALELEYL
Target sequence (Q15475 whole entry, looked up): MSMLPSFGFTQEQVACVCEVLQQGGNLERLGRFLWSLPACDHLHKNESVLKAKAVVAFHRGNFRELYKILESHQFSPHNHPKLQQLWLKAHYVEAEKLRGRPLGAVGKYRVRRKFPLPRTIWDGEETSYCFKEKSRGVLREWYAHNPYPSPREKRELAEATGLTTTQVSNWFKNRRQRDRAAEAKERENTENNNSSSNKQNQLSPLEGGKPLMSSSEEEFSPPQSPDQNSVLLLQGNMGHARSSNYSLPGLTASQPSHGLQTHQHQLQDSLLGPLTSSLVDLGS
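Six1/Eya2 binding was read as AlphaScreen signal after compounds were pinned into GST-Six1 plus His-tagged Eya2 (5X stock 250/500 nM) in pH 8.0 Tris/NaCl/TCEP buffer, beads added, then incubated 1 h, 37 C, dark.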
D2 agonist: agonists of human D2 dopamine receptor (beta-arrestin). P14416. DiscoveRx PathHunter D2 beta-arrestin, luminescence, 90 min; 100% = 57 uM dopamine signal. activation, % (no concentration beside the values). 360,000 compounds, 0.084% hits; in the data active = activation above about 40%; inconclusive = about 15% to 40%; inactive = below about 15%; further: compound concentration not given in the record; the text of the record calls up to 30% inactive
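Agonist mode: compounds alone added to overnight-plated D2 PathHunter cells for 90 min at 37 C, with 57 uM final dopamine (EC100) defining full response. Beta-arrestin recruitment detected by chemiluminescent reagent, read after 1 h at ambient temperature.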
TRPML1 ag: activates the human TRPML1 channel. AID 624414. Q9GZU1. 410,000 compounds, 0.12% hits. TRPML1-expressing cells, Ca2+ dye fluorescence, FDSS; host cell line not named in the record; reference of the full effect not given here. activation, % (test concentration not listed); in the data active = activation above about 50%; inconclusive = about 30% to 50%; inactive = below about 30%; further: 0% is about no effect; the text of the record puts the active cut at 80%
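Calcium fluorescence on an FDSS kinetic reader gave the read-out. Tet-induced TRPML1-DL cells were plated overnight, dye-loaded (Ca8 with quencher, 45-90 min, room temperature, dark), then read 110 s after compound addition, and again 110 s after 4uM final 54-4 (EC80).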
Active calls of the source: *; ? = inconclusive; nt = not tested or not shown; & = joins results of further samples; [ ] = dose if it differs, or a comment.

SMILES	D2 potentiator	CtBP-E1A blk	PINK1 expr mod	Six1-Eya2 inh	D2 agonist	TRPML1 ag
CCOC(=O)Nc1ccc2c(c1)nc1n2CCN(CCOC)C1	0	0	0.9%	0	-6.0	0.5
Cc1ccccc1-n1nc2c(c1NC(=O)c1c(-c3ccccc3Cl)noc1C)CSC2	-20	5	-0.5%[38.3 µM]	-6	-1.7	0.5
Cc1cc(NC(=O)COC(=O)CCn2c(C)csc2=O)c([N+](=O)[O-])cc1C	-11	-9	-0.3%	-11	-3.0	-0.1
O=C1/C(=C/c2ccc(F)cc2)SC(=S)N1CC(=O)N1CCCCC1c1cccnc1 (stereo not drawn)	-4	nt	2.0%	15	2.8	0.5
CC(=O)Nc1ccc(/C(N=Nc2ccccc2)=N/N=C(N)N)cc1	-8	1	2.9%	?	3.2	0.6
CC(C(=O)N(C)c1ccccc1)N1CCN(C(=O)c2ccccc2)CC1 (stereo not drawn)	-1	0	0.1%	11	4.3	-1.2
CC(C)Cn1c(/C=N/Nc2nc3ccccc3[nH]2)nc2ccccc21	-39	3	2.3%	-3	-5.5	0.3
Cc1sc2nc3c(SC(C)C(=O)O)cc(C(=O)c4ccccc4O)cn3c(=O)c2c1C (stereo not drawn)	15	7	6.3%	-20	-0.1	2.2
O=C(Cn1nnc2ccccc21)NC1CCCCC1	-8	-1	-2.3%	0	-2.4	1.9
COc1ccc(NS(=O)(=O)c2cccc(C(=O)N/N=C/c3ccccc3OC)c2)cc1	-6	-6	2.9%	-19	-0.2	3.3
CCOC(=O)N1CCN(Cc2nc3ccc([N+](=O)[O-])cc3c(=O)n2-c2ccccc2F)CC1	5	nt	8.0%	-7	12	0.2
COc1ccc(C(CNC(=O)COc2ccc(C)c(C)c2)N2CCCCC2)cc1 (stereo not drawn)	-30	-5	7.1%&1.7%	-5	-1.3	-1.6&-0.7
O=C1COc2ccc(C(=O)NC3CC3)cc2N1	1	6	0.0%	1	-4.8	0.2
Cc1ccc2c(c1)N(CC(=O)N1CCCCCC1)C(=O)C(C)O2 (stereo not drawn)	-3	8	-1.7%	16	-0.2	0.1
O=C(NC1CC1)C1CCCN1S(=O)(=O)c1ccc2ccccc2c1 (stereo not drawn)	0	0	2.8%	0	-2.5	0.2
O=C(NCCC1CCCCN1S(=O)(=O)c1ccc(Cl)cc1)C(=O)NCCN1CCOCC1 (stereo not drawn)	-2	0	1.1%	23	2.4	0.8
C=CCNC(=O)Nc1cc(Cl)ccc1OC	-9	9	0.7%	1	-4.1	3.1
C/C(=N\NC(=O)CN1CCN(S(=O)(=O)c2ccc(C)cc2)CC1)c1cccnc1	-19	2	-2.1%	10	-0.7	-0.2
Cc1ccc2cc(C#N)c(SCC(=O)N3CCCC3)nc2c1	-8	-2	0.3%	-5	1.0	1.5
COc1ccc(CSc2nnnn2-c2ccc(C(=O)O)cc2)cc1	4	8	-3.3%	11	4.8	1.0
O=C(CCc1c[nH]c2ccccc12)N1CCN(S(=O)(=O)c2ccc(F)cc2)CC1	20	-4	-2.6%	4	0.1	-0.2
CCN(CC)S(=O)(=O)c1ccc2nc(COC(=O)c3n[nH]c4ccccc34)[nH]c2c1	0	-6	2.9%	1	2.5	1.0
CC(NC(=O)c1ccc(Br)cc1Br)c1ccccc1 (stereo not drawn)	2	nt	1.2%	8	2.7	-0.6
Cc1cc2oc(C(=O)Nc3nonc3C)c(C)c2cc1Cl	-7	nt	1.9%	0	-1.2	3.6
CCOc1ccc(S(=O)(=O)N(C)c2ccc(OCC(=O)NCc3cccnc3)cc2)cc1	-6	-18	4.1%	2	0.1	-0.5
O=C(COc1ccc(-c2ccccc2)cc1)N1CCN(C(=O)c2cccnc2)CC1	-3	-1	12%	10	1.2	-0.3
CC(=CC(=O)c1ccccc1)c1ccccc1	-2	13	4.3%	7	4.2	3.1
O=S(=O)(N1CCCCC1)N1CCCN(S(=O)(=O)N2CCCCC2)CC1	-11	0	0.3%	5	-1.5	0.0
CCOC(=O)c1cc(-c2sc(NC(=O)c3ccccc3)nc2C)n(Cc2ccccc2)n1	16	0	-0.4%	-12	-1.2	5.0
Cc1ccc(NC(=O)CSc2nc3nn(-c4ccccc4)c(=O)c-3c3n2CCCCC3)cc1F	-3	-5	3.3%	-8	0.3	0.2
Cc1ccccc1CNC(=O)c1ccccc1C	-1	-2	0.2%	13	0.3	-0.8
Cc1cc2cc(C(c3nnnn3Cc3ccco3)N3CCCCC3)c(=O)[nH]c2cc1C (stereo not drawn)	-3	4	7.3%[38.3 µM]	-1	-1.7	-0.4
CCN(c1ccccc1)S(=O)(=O)c1cc(NC(=O)CN2CCN(C)CC2)ccc1Cl	-8	-5	-0.5%	0	-3.0	1.2
COc1ccc(C(OCC(O)CNC(C)c2ccccc2)c2ccc(OC)cc2)cc1 (stereo not drawn)	-9	-20	-0.3%	-5	-1.3	0.7
O=C(O)CCCCCNS(=O)(=O)c1c(Cl)cccc1Cl	10	3	-0.5%	2	-1.1	-0.3
CCOc1ccc(NC(=O)CC2C(=O)N(c3ccc(OC)c(Cl)c3)C(=S)N2C2CC2)cc1 (stereo not drawn)	14	5	18%	0	-0.7	0.8
Cc1ccc(C)c(NC(=S)NCCc2ccc(F)cc2)c1	-19	nt	0.2%	-9	-6.3	1.7
CCSc1ncnc2sc(C)c(C)c12	-7	0	2.6%	14	-2.7	0.8
CCN1C(=O)S/C(=C/c2ccc(Sc3nc4ccccc4[nH]3)o2)C1=O	-28	6	?	-5	-1.6	0.5
Clc1ccc(-c2nc(C3CCCCC3)no2)cc1	-14	22	4.7%	1	1.3	0.5

Retrieved by structure from the entries so far, 5 records:
SMILES	D2 potentiator	CtBP-E1A blk	PINK1 expr mod	Six1-Eya2 inh	D2 agonist	TRPML1 ag
O=C1COc2ccc(C(=O)NC3CC3)cc2N1	1	6	0.0%	1	-4.8	0.2
Cc1ccc(C)c(NC(=S)NCCc2ccc(F)cc2)c1	-19	nt	0.2%	-9	-6.3	1.7
Cc1ccc2c(c1)N(CC(=O)N1CCCCCC1)C(=O)C(C)O2 (stereo not drawn)	-3	8	-1.7%	16	-0.2	0.1
Cc1ccccc1CNC(=O)c1ccccc1C	-1	-2	0.2%	13	0.3	-0.8
COc1ccc(C(CNC(=O)COc2ccc(C)c(C)c2)N2CCCCC2)cc1 (stereo not drawn)	-30	-5	7.1%&1.7%	-5	-1.3	-1.6&-0.7

Additional results follow.
SMILES	D2 potentiator	CtBP-E1A blk	PINK1 expr mod	Six1-Eya2 inh	D2 agonist	TRPML1 ag
CCOc1ccc(NC(=O)CN2CCN(CC(=O)Nc3ccc4c(c3)OCO4)CC2)cc1	-2	0	0.7%	-5	-2.1	-0.9
O=C(c1ccc(NS(=O)(=O)c2cccc(C(F)(F)F)c2)cc1)N1CCCC1	9	15	0.9%	-1	0.3	0.2
Cc1ccc(Cl)cc1N1CCN(C(=O)C2(S(=O)(=O)c3ccc(Cl)cc3)CC2)CC1	-30	-3	1.0%	2	-2.2	1.0
CCN(CC)CCNC(=O)c1ccc(NC(=O)c2cn(-c3ccccc3)nc2-c2cccs2)cc1	-1	-4	-1.2%	0	-0.2	-0.3
O=c1c(Cl)c(Cl)cnn1Cc1ccc(F)cc1	3	4	-2.2%	4	-0.8	2.5
O=C(Nc1ccc(Cc2ccncc2)cc1)c1cc([N+](=O)[O-])ccc1N1CCOCC1	-12	-1	-0.2%	-12	-3.7	-0.5
COc1ccc(-c2nn(-c3ccccc3)cc2CNC[C@H]2O[C@@H](n3ccc(=O)[nH]c3=O)[C@H](O)[C@@H]2O)cc1	-9	3	3.3%	0	-7.0	-0.4
Cc1cccc(NC(=O)c2nc[nH]c2C(=O)NCCCNC(=O)c2[nH]cnc2C(=O)Nc2cccc(C)c2)c1	-6	0	0.6%	4	-0.9	-0.1
COc1cccc(C(=O)Nc2nc3c(s2)CN(C)CC3)c1	-1	0	0.2%	7	-4.5	-0.4
Cc1cc(OCCCCN2C(=O)NC(C)(C)C2=O)cc(C)c1Cl	-15	5	nt	-1	-1.5	0.9
O=C(COC(=O)COc1ccccc1)NCc1ccco1	0	5	0.8%	-1	6.6	-0.2
Cc1cccc(Cn2c(N(C)CCO)nc3c2c(=O)[nH]c(=O)n3C)c1	-3	-18	-1.5%	7	-0.6	0.1
CSCc1ccc(C(=O)N2CCCC(Nc3ccc(F)cc3)C2)o1 (stereo not drawn)	-6	-14	0.6%	-8	-0.3	-0.5
CC(C)NC(=O)c1cc(C2CCCCN2C(=O)OCCF)on1 (stereo not drawn)	-3	8	0.2%	5	-1.9	0.1
COc1ccc(-c2noc(-c3ccccc3C(=O)NCc3ccco3)n2)cc1OC	-13	-12	0.2%	-8	-2.0	-0.5
COc1ccc(NC(=O)CCN2CCN(S(=O)(=O)c3ccc(Br)cc3)CC2)cc1	1	nt	0.9%	-7	-0.4	-0.5
COC(=O)c1nc(-n2nc(C)cc2C)ccc1Cl	-4	1	-0.5%[38.3 µM]	3	-2.1	2.7
O=C(Nc1nonc1-c1ccc(Cl)cc1)c1ccccc1	5	-14	?	15	-1.6	3.3
Cc1ccc(S(=O)(=O)CCC(=O)OC2CC(C)OC2=O)cc1 (stereo not drawn)	0	nt	-1.1%	-1	0.1	0.0
COc1ccc(CN2CCNC(=O)C2CC(=O)N2CCCO2)c(OC)c1 (stereo not drawn)	-2	5	-5.5%	2	-1.6	-0.5
CSc1ccc(Cn2c(C)c(C(=O)NCc3cccs3)sc2=O)cc1	2	-13	-1.4%	-19	5.2	-0.6
COC(=O)CN(C#N)c1nc(SC)nc(N(C)C)n1	1	4	-4.6%[38.3 µM]	-6	0.3	0.0
Cc1ccc(CCNC(=O)CCSCc2ccc(Cl)cc2)cc1	-12	20	0.7%&3.8%	5	2.0	0.1&0.2
CC1CC(C)CN(C(=O)CSc2ncnc3sccc23)C1 (stereo not drawn)	-16	2	2.2%	-3	-3.4	0.9
CCOc1ccc(NCc2cc3c(C(C)(C)C)nn(-c4ccccc4)c3[nH]c2=O)cc1	-33	-25	3.8%[38.3 µM]	?	-4.1	0.0
CCOc1ccc(NS(=O)(=O)c2ccc(C(=O)N3CCCCCC3)cc2)cc1	7	5	0.7%	-3	-7.3	7.0
Cc1ccc(S(=O)(=O)N(C)C[C@H]2Oc3ccc(NC(=O)Nc4c(C)noc4C)cc3CC(=O)N([C@@H](C)CO)C[C@@H]2C)cc1	-4	2	-1.1%	1	-2.1	-0.1
CCN1CCN(C(=O)C2CCC(CNS(=O)(=O)c3ccc(NC(C)=O)cc3)CC2)CC1 (stereo not drawn)	-8	nt	-1.2%	4	-5.6	-0.8
CCCCNC(=O)c1ccccc1NC(=O)CCSc1ccccc1	5	2	-1.1%	11	-0.9	1.8
CCOC(=O)CCn1c2nc(C)cc(C)c2c(=O)n1-c1ccccc1	9	5	0.1%	2	-0.1	-1.3

In the list so far, 2 contain bromine.
SMILES	D2 potentiator	CtBP-E1A blk	PINK1 expr mod	Six1-Eya2 inh	D2 agonist	TRPML1 ag
CC(NC(=O)c1ccc(Br)cc1Br)c1ccccc1 (stereo not drawn)	2	nt	1.2%	8	2.7	-0.6
COc1ccc(NC(=O)CCN2CCN(S(=O)(=O)c3ccc(Br)cc3)CC2)cc1	1	nt	0.9%	-7	-0.4	-0.5

Screens (PubChem BioAssay)
